# High-throughput results as filed in PubChem BioAssay.
# ClpP mod – qHTS Assay for Activators of ClpP; ATP-dependent Clp protease proteolytic subunit (Bacillus subtilis (strain 168)), P80244; purified B. subtilis ClpP, FRET peptide cleavage, 20 min; Potency, µM (highest dose often 57.5 µM), inactives show at the top dose activity change, negative = active; actives 1.9% (n = 340,000); AID 651965, 2013; active = well fitted falling curve with a large enough effect; inconclusive = small, poorly fitted or top-dose-only effect; inactive = no such curve, though single readings can be large or run the other way; note: potency is the fitted concentration of half-maximal effect; the source files actives as falling curves though it sought activators and does not explain the sign; nearly all actives have a fitted effect of over 65% in size; many hits overshoot -100%
# Target sequence (P80244 whole entry, looked up): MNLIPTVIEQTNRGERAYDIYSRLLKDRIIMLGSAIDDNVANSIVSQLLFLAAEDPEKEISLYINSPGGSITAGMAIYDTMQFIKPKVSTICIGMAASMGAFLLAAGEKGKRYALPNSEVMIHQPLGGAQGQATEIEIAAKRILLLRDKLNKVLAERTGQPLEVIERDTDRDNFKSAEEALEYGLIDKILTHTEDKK
#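 Purified B. subtilis ClpP, 10 microg/mL final in Tris/HCl pH8 with KCl, BSA, glycerol and Tween-20, cleaved an Abz/nitrotyrosine-quenched decapeptide. Fluorescence (ex 320, em 430) was read at 0 and 20 min at room temperature. Delta was normalized to 5.8 microM ADEP and DMSO/no-enzyme controls.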
# D2 potentiator – positive allosteric modulators of human D2 dopamine receptor. P14416. DiscoveRx D2 beta-arrestin cells, luminescence, 90 min; 100% = 57 uM dopamine signal. potentiation, % (concentration not given with the values). actives 0.23% (n = 360,000). AID 624464; active = potentiation of 50% or more; inconclusive = 30% to 50%; inactive = 30% or less;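 note: compound concentration not given in the record; tested on top of an EC20 dose of dopamine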
# Target sequence (P14416 whole entry, looked up): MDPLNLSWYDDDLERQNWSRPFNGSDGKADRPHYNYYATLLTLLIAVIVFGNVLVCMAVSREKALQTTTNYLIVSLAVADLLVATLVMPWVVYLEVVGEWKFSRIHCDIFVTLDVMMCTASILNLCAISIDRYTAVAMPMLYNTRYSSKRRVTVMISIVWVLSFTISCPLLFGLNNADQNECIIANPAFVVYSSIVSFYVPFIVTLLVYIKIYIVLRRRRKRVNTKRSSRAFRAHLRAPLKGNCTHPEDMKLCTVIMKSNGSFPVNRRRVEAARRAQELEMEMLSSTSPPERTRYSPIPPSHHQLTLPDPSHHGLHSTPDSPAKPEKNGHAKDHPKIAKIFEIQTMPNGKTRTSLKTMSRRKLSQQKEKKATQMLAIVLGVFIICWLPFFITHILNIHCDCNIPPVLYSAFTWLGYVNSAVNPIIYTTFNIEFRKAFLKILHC
#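 D2 cells co-treated with compound plus 50 nM dopamine (EC20) for 90 min at 37 deg C to detect potentiation. Beta-arrestin recruitment was read as enzyme-fragment luminescence after 1 h at ambient temperature. Full response was set by 57 uM dopamine.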
# Menin-MLL FL inh – menin-MLL binding inhibition, fluorescein peptide; Fluorescence polarization, fluorescein-MLL peptide displacement from menin; FP activity change, % at 61.4 µM; 290,000 tested, under 10 active; inconclusive = falling polarisation curve, or a change in total fluorescence; inactive = total fluorescence flat and polarisation flat or rising; no compound was filed as active; the % refers to the polarisation; negative = inhibition;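 note: % of control where 0% means no effect; inhibitors lower the polarisation; unlabelled MLL peptide was the positive control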
# gsp ag – agonists of gsp mutant (McCune-Albright syndrome); gsp mutant cells, cAMP HTRF, 30 min; control for the full effect not named in the record; Potency, µM (highest dose often 76.9 µM), for the others: at the highest dose activation (cAMP increase), actives largely listed as activators; actives 0.13% (n = 340,000); active = well fitted activation curve with a large enough effect; inconclusive = small, poorly fitted or top-dose-only effect, or another doubt; inactive = no such curve, though single readings can be large or run the other way; cell line not stated here;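 note: phosphodiesterase inhibitor Ro 20-1724 added with compounds to block cAMP breakdown; potency is the fitted concentration of half-maximal effect; nearly all actives have a fitted effect of over 60% in size; about a fifth of the inactives were tested at one dose only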
#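 Cells in DMEM/10% FBS with G418 were pretreated with compounds in DMSO plus […] (300 uM stock) for 30 min at 37C. cAMP was measured by HTRF (cAMP-d2 plus anti-cAMP antibody-K) after 30 min at room temperature.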
# Sfp inh – blocks B. subtilis Sfp PPTase activity; actives 3.5% (n = 310,000); Biochemical Sfp PPTase activity, qHTS; Potency, µM, for the others: max response, negative = inhibition, hits mostly inhibitors; Q9F4F7; active = well fitted inhibition curve with a large enough effect; inconclusive = small, poorly fitted or top-dose-only effect, or another doubt; inactive = no such curve, though single readings can be large or run the other way;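 note: the enzyme is Sfp with the accession as filed and its product quenches rhodamine fluorescence; potency is the fitted concentration of half-maximal effect; 0% = enzyme reaction without inhibitor and -100% = no enzyme wells; top concentration of the series not given in the record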
#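 Sfp 15 nM + cpd, 15 min RT; start w/ rhodamine-CoA 5 uM, BHQ-2-YbbR 12.5 uM (final); 50 mM Hepes pH 7.6, 10 mM MgCl2, 0.01% NP-40, 0.01% BSA; read 525/598 nm at 0 and 30 min.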
# TRPV1 PAM – human TRPV1 potentiation; AID 540277; potentiation, % at 8.33 µM; Q8NER1; actives 0.02% (n = 320,000); TRPV1-expressing cells, Fluo-8 calcium influx, capsaicin EC20 potentiation; host cell line not named in the record; control for the full effect not named in the record; active means potentiation above 80%; inconclusive means 30% to 80%; inactive means below 30%; note: 0% is about no effect
#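 TRPV1-expressing cells were cultured overnight at 35.5C and loaded with Fluo-8 calcium dye for 40 to 90 min at room temperature. After a 10 s baseline, compound was added and calcium influx was read kinetically for 3 min (ex 480/em 520 nm).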
# gsp antag – gsp mutant antagonism; Potency, µM (doses to about 76.9 µM), inactives show at the top dose activity change, negative = inhibition, actives largely listed as inhibitors; actives 0.4% (n = 340,000); gsp-mutant cells, cAMP HTRF, 30 min; control for the full effect not named in the record; active = falling curve of any shape with a large fitted effect; inconclusive = falling curve, mostly with a smaller effect; inactive = flat or rising curve; cell line not stated here;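 note: intracellular cAMP measured with PDE inhibitor Ro 20-1724 present during compound exposure; potency is the fitted concentration of half-maximal effect; % is set by controls: 0 for no effect and ±100 for the full control effect; nearly all actives have a fitted effect of over 65% in size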
#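 HTRF cAMP measurement after 30 min RT detection following 30 min, 37C compound treatment alongside […] (added as 300 uM solution) in G418-selected cells seeded at 2000/well and grown 16–24 h.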
# Numbers without * were called inactive; ? = inconclusive; · = no result given; & = joins results of further samples; [ ] = another dose, or the depositor's remark.
SMILES	gsp antag	gsp ag	Sfp inh	Menin-MLL FL inh	D2 potentiator	TRPV1 PAM	ClpP mod
COc1cccc2c1O/C(=N\O)C(C(=O)Nc1cccc(Br)c1)C2 (stereo not given)	-6%	7%[15.4 µM]	2%	-0.5	-5	-8	·
CCN(CC(=O)Nc1ccc(NC(C)=O)cc1)C(=O)c1cc2c(s1)CCCC2	-3%	12%	·	·	5	-9	-0.7%
Cc1ccc(Cl)cc1N1CCN(C(=O)c2noc(C(C)C)c2[N+](=O)[O-])CC1	3%	-9%	1%	3.0	6	-1	-0.5%
CCOc1ccccc1NC(=O)COC(=O)C1COc2ccccc2O1 (stereo not given)	·	-28%	·	·	-14	·	0.2%
Cc1cc(NS(=O)(=O)c2ccc(NC(=O)/C=C/c3ccccc3)cc2)no1	-22%	-28%	22%	0.2	-2	?	·
COc1ccc(CC(=O)Nc2ccc(OC(C)=O)cc2C(=O)O)cc1	-4%	-11%	6%	1.0	1	14	?
Cc1nc2sc(C(c3ccccc3)N3CCN(c4ccccc4F)CC3)c(O)n2n1 (stereo not given)	3%	-33%[inhibitor]	-2%	1.3	-1	3	-1.7%
Cc1ccc(NC(=O)CCCN2C(=O)/C(=C/C=C/c3ccccc3)SC2=S)cc1	16%	-15%	-7%	1.6	-22	3	0.9%
COc1ccc(CCN(C)Cc2nc(-c3cnccn3)no2)cc1OC	8%	-12%	6%	0.1	-5	-9	-1.4%
CCOC(=O)c1cc2c(=O)n3cccc(C)c3nc2n(Cc2ccco2)c1=NC(=O)c1ccc(C)cc1	8%	?	·	·	-9	·	0.9%
CCC1CCCCN1Cc1ccc(CNS(=O)(=O)c2ccc3c(c2)oc(=O)n3C)o1 (stereo not given)	1%	-74%[inhibitor]	14%	?	-11	-17	0.0%
CCC(CC)C(=O)Nc1nnc(S(=O)(=O)Nc2ccc(OC)cc2)s1	7%	17%	25%	1.8	-11	9	-2.8%
Cc1cc(=O)oc2c(C)c(OCC(=O)NCCCN3CCCC3=O)ccc12	4%	12%	19%	·	-4	-5	3.5%
CCOC(=O)C1CCN(S(=O)(=O)c2ccc3c(c2)N(C)C(=O)CC(=O)N3C)CC1	-3%	?	0%	·	-26	-15	2.4%&-1.0%
Cc1nc(NCCc2ccc(O)cc2)c2nnn(Cc3ccccc3)c2n1	-9%	?	10%	1.0	-5	-3	·

# 3 structures already listed, ordered by count of non-hydrogen atoms, low to high.
SMILES	gsp antag	gsp ag	Sfp inh	Menin-MLL FL inh	D2 potentiator	TRPV1 PAM	ClpP mod
CCOc1ccccc1NC(=O)COC(=O)C1COc2ccccc2O1 (stereo not given)	·	-28%	·	·	-14	·	0.2%
Cc1nc(NCCc2ccc(O)cc2)c2nnn(Cc3ccccc3)c2n1	-9%	?	10%	1.0	-5	-3	·
CCC1CCCCN1Cc1ccc(CNS(=O)(=O)c2ccc3c(c2)oc(=O)n3C)o1 (stereo not given)	1%	-74%[inhibitor]	14%	?	-11	-17	0.0%

# The listing continues.
SMILES	gsp antag	gsp ag	Sfp inh	Menin-MLL FL inh	D2 potentiator	TRPV1 PAM	ClpP mod
CC(CC(=O)c1cccs1)CC(=O)c1cccs1	-9%	-80%[inhibitor]	0%	-2.8	-3	-27	0.5%
Nc1nnc(SCc2ccccc2F)n1-c1ccccc1	14%	3%	15%	-0.8	-12	8	1.4%
COC(=O)c1[nH]c2ccccc2c1NC(=O)CN1CCCc2ccccc21	7%	-1%	40µM*	?	6	-6	-19%
Oc1[nH]c2ccccc2c1N=NC(=S)NCCc1ccccc1	25%	-29%	-13%	0.9	-36	-20	1.0%
Cc1nc(N)c(Br)c(C)c1Br	6%	-66%[15.4 µM]	10%	-0.1	-3	?	·
Cc1cc(F)ccc1NC(=O)C1CSC2(C)CCC(=O)N12 (stereo not given)	6%	9%[15.4 µM]	·	·	-6	-25	-2.3%
CCc1nn(CC(=O)N2CCC(C)CC2)c(=O)c2cccn12	7%	21%	13%	-0.2	-3	-3	-1.2%
CCCn1c(N2CCN(C)CC2)nc2c1c(=O)[nH]c(=O)n2C	13%	7%	9%	-1.6	-15	-16	-1.5%
Cc1nn2c(NCCOCCO)c3c(nc2c1-c1ccccc1)CCCC3	-12%	1%	12%	6.1	-7	-15	-1.3%
O=C(Nc1ccccc1F)c1cc2nc(C(F)F)cc(C(F)F)n2n1	-13%	11%	7%	1.5	5	-65	-27%
COc1ccc(N2CCN(C(=O)CCSCc3ccccc3F)CC2)cc1	-5%	-4%[15.4 µM]	16%	1.5	-2	-8	·
CN(C)C(CNC(=O)CSc1nc2sc3c(c2c(=O)n1C)CCCC3)c1ccccc1 (stereo not given)	-9%	13%	·	·	-4	-1	-6.7%
O=C(NCC1CC1)[C@]1(C(F)(F)F)C[C@H](CCC2CCCCC2)CCCO1	6%	-44%[inhibitor]	9%	1.6	-6	·	0.3%
O=C1COc2cc(S(=O)(=O)CCC(=O)N3CCCCC3)c(Cl)cc2N1	2%	-32%	12%	2.1	-2	16	2.8%
O=C(CC1C[C@H](C(=O)N2CCOCC2)[C@@]2(CCC3CCCC3)c3[nH]c4ccccc4c3CCN2C1=O)NCCc1ccccn1 (stereo not given in full)	-12%	·	·	·	-6	·	-2.9%
CCC(C(=O)N1CCN(Cc2ccc3c(c2)OCO3)CC1)n1nnc2ccccc2c1=O (stereo not given)	·	-34%	·	·	-16	·	-1.2%
CCC(CC)NC(=O)Cc1ccccc1OC	-3%	-51%	17%	-1.7	0	1	-3.2%
N#Cc1c(NC(=S)NC(=O)C2CCCC2)sc2c1CCCCC2	-14%	12%	?	-11	-12	24	1.7%
COc1ccc(CN(C(=O)c2ccc(C)cc2)C2CCS(=O)(=O)C2)cc1 (stereo not given)	-8%	26%	13%	2.8	-7	0	-0.4%
O=C(CO/N=C1\CCCc2nonc21)Nc1ccc(Br)cc1	-3%	-4%[15.4 µM]	-8%	3.1	-41	-17	-6.3%
CC(NC(=O)CN(c1ccccc1F)S(C)(=O)=O)c1ccccc1 (stereo not given)	11%	6%[15.4 µM]	10%	3.1	-4	-4	1.0%
O=C1NC2c3c(Cl)sc(Cl)c3C(=O)C2O1 (stereo not given)	-3%	?	·	·	-12	·	-5.8%
C/C(=N\N=C(c1ccccc1)c1ccccc1)c1ccco1	-27%	23%[15.4 µM]	6%	-2.2	-1	6	·
COc1ccc(OC)c2[nH]c(=O)c(CCNS(=O)(=O)c3ccc(F)cc3)cc12	-1%	-7%	9%	0.3	-5	10	·
CCOc1ccccc1N1CCN(CC(O)COc2ccc3c(C)cc(=O)oc3c2)CC1 (stereo not given)	12%	-22%	9%	0.3	-6	-4	?
O=C(Nc1ncccc1Cl)c1cccc(F)c1	3%	-12%	35%[activator]	1.1	-6	?	-1.2%
Cc1nn(-c2ccccc2)c(Cl)c1C(=O)NCC(C)C	9%	34%	-4%	0.0	-5	0	-1.5%
CCOC(=O)CSc1nnc(CNC(=O)c2ccc(OC)cc2OC)n1-c1ccc(OC)cc1	-13%	21%	10%	-2.2	-5	3	0.5%
CN(c1cccc(NC(=O)CN2C(=O)c3ccccc3S2(=O)=O)c1)S(C)(=O)=O	-2%	26%	-4%	-0.1	-8	12	28µM*
COc1cc2c(cc1OC)C(=NO)CCCC2	·	-45%	·	·	-17	·	-0.2%
COc1ccccc1C(=O)NC(=O)COC(=O)CNC(=O)c1ccccc1	1%	2%	·	·	-5	1	-15%
CCCc1cc(C(=O)OCC(=O)N(CCC)c2c(N)n(Cc3ccccc3)c(=O)[nH]c2=O)sc1C	2%	20%	·	·	-8	7	1.1%
Cc1c(NC(=O)c2ccc(Cl)c([N+](=O)[O-])c2)cccc1-n1cnnn1	-9%	26%	·	·	-4	·	0.5%
Cc1ccc(NC(=O)COC(=O)COc2cccc3c2OC(C)(C)C3)cc1C	1%	1%	8%	2.3	6	9	0.8%
N/C(=N/O)c1cccn1Cc1ccccc1[N+](=O)[O-]	5%	-17%	18%	-7.2	-2	-2	·
CSc1ccccc1NC(=O)CO/N=C(\C)c1cc2ccccc2o1	-22%	23%	-25%	-2.5	-1	0	-3.3%
Cc1ccccc1SC1CCN(C(=O)C2CCC(=O)N(C3CC3)C2)CC1 (stereo not given)	-3%	?	1%	·	5	2	1.3%
CC1CCN(CCCNC(=O)C2CCC(CNS(=O)(=O)c3ccccc3)CC2)CC1 (stereo not given)	13%	2%	14%	·	-10	-6	1.2%
Cc1ccc(NC(=O)CCn2cnc3ccccc3c2=O)cc1Cl	-5%	1%	16%	-1.9	-14	-3	-1.9%
Fc1ccc(-c2csc(Nc3ccccn3)n2)cc1	-13%	-32%[inhibitor]	-13%	5.5	-4	-2	-3.6%
Cc1nc(N2CCN(c3ccccc3)CC2)[nH]c(=O)c1Cc1ccccc1	10%	22%	9%	1.4	-3	14	1.0%
COc1ccccc1N1CCN(/N=C/c2ccc(C(=O)O)cc2)CC1	6%	-7%	18%	0.0	-9	7	-0.8%
CCOC(=O)c1cnc(-n2cc(C)cn2)nc1Nc1ccccc1OC	-19%	?	-2%	0.6	7	-5	-1.0%

# Arranged by value in D2 potentiator (falling): 3 from the list above
Compound | D2 potentiator
CSc1ccccc1NC(=O)CO/N=C(\C)c1cc2ccccc2o1 | -1
COc1ccccc1C(=O)NC(=O)COC(=O)CNC(=O)c1ccccc1 | -5
COc1ccccc1N1CCN(/N=C/c2ccc(C(=O)O)cc2)CC1 | -9
